Compound activity as filed in PubChem BioAssay.
NS1 inh: influenza NS1 inhibition. S. cerevisiae slowed by influenza A NS1, growth recovery by OD600. Potency, µM (doses to about 46.1 µM), for inactives: at the top dose activity, positive = more growth. 0.4% of 270,000 active; active means well fitted rising curve with a large enough effect; inconclusive means small, poorly fitted or top-dose-only effect; inactive means no such curve, though single readings can be large or run the other way; note: nearly all actives have a fitted effect of over 50% in size
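Recovery from NS1-induced slow growth read by OD600 in budding yeast switched to galactose assay medium (pH 6.0, -URA) at 1:100 dilution. Compound 23 nl per well; the matching strain lacking NS1 serves as control.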
RE007 growth inh: less growth of the S. pombe RE007 Vpr strain | AID 651644 | Potency, µM (top dose mostly 92.2 µM), for the others: at the highest dose activity change, negative = less growth | S. pombe RE007 Vpr strain, BacTiter-Glo ATP luminescence, 24 h; control for the full effect not named in the record | 0.21% of 360,000 active; active = well fitted falling curve with a large enough effect; inconclusive = small, poorly fitted or top-dose-only effect; inactive = no such curve, though single readings can be large or run the other way;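 note: % is set by controls: 0 for no effect and ±100 for the full control effect; nearly all actives have a fitted effect of over 50% in size; the assay follows cell death caused by Vpr and the record does not say whether a fall means rescue or toxicity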
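Fission yeast RE007 carrying one integrated HIV-1 vpr copy, seeded at OD 0.01 in PMG+AL medium with 23 nL pinned compound. Grown 24 h at 30 degrees; viability read by BacTiter-Glo luminescence after 5 min.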
MARV entry inh: blocks Marburg virus binding to or entry into cells | Potency, µM (top dose mostly 37.8 µM), for the others: at the highest dose activity change, negative = inhibition, most hits filed as inhibitors | Marburg virus pseudotyped entry inhibition, cell reporter; control for the full effect not named in the record; about a third of the inactives were read at about 46 µM | 1.8% of 300,000 active; active = well fitted inhibition curve with a large enough effect; inconclusive = small, poorly fitted or top-dose-only effect, or effect the other way; inactive = flat fitted curve, though single readings scatter; tested in HEK293 cells; about a fifth of its hits are not listed in these tables; note: % is set by controls: 0 for no effect and ±100 for the full control effect; luciferase read-out
2A StopGo: FMDV 2A StopGo reporter, luciferase signal. human cells with a luciferase reporter of 2A StopGo recoding; control for the full effect not named in the record. Potency, µM (series often up to 57.9 µM), without a hit: top-dose signal change, negative = less light. 1.2% of 410,000 active; active = well fitted falling curve with a large enough effect; inconclusive = small, poorly fitted or top-dose-only effect; inactive = no such curve, though single readings can be large or run the other way; tested in HEK293T cells; note: % is set by controls: 0 for no effect and ±100 for the full control effect; nearly all actives have a fitted effect of over 45% in size; luciferase light after 4 h
LASV entry inh: Lassa virus entry inhibition. Lassa virus pseudotype entry inhibition, cell reporter; control for the full effect not named in the record. Potency, µM (top dose mostly 37.9 µM), for the others: top-dose activity change, negative = inhibition, actives largely listed as inhibitors. 1.2% of 300,000 active. AID 540256; active means well fitted inhibition curve with a large enough effect; inconclusive means small, poorly fitted or top-dose-only effect, or effect the other way; inactive means flat fitted curve, though single readings scatter; tested in HEK293 cells; note: % is set by controls: 0 for no effect and ±100 for the full control effect; nearly all actives have a fitted effect of over 50% in size; luciferase read-out
Cruzain inh noDet: blocks cruzain activity in detergent-free assay; purified cruzain, Z-FR-AMC fluorescence, no detergent; Potency, µM, for the others: max response, negative = inhibition, most hits filed as inhibitors; 2.3% of 200,000 active;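 note: plate controls were enzyme without inhibitor for no effect and buffer without enzyme for full effect; nearly all actives have a fitted effect of over 40% in size; top concentration of the series not given in the record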
Target sequence (P25779 123-467 limits assumed): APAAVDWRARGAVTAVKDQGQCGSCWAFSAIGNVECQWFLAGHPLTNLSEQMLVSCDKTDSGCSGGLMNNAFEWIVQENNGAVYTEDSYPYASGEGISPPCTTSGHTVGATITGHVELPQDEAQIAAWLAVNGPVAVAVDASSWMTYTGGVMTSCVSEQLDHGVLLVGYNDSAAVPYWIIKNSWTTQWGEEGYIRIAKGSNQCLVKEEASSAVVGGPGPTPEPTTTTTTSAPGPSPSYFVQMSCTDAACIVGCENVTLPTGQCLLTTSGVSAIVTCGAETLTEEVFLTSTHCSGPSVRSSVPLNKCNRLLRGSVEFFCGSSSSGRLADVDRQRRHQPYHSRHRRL
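Detergent-free condition (0.00005% Triton X-100) in acetate buffer pH 5.5 with DTT. 1.5 nM enzyme and compound were pre-mixed 15 min, then 2 uM Z-FR-AMC substrate added; reaction progress from fluorescence change between first and third reads (60 s).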
SARS PLP yeast: inhibitors of SARS-CoV papain-like protease in yeast. 0.19% of 330,000 active. Potency, µM (top dose mostly 32.9 µM), without a hit: at the top dose activity, positive = growth rescue. S. cerevisiae expressing SARS-CoV PLpro, growth rescue; control for the full effect not named in the record; active means well fitted rising curve with a large enough effect; inconclusive means small, poorly fitted or top-dose-only effect; inactive means no such curve, though single readings can be large or run the other way; note: 0% is about no effect; nearly all actives have a fitted effect of over 55% in size; growth read by luminescence after 48 h
Cruzain Triton: inhibitors of Trypanosoma cruzi cruzain with detergent. P25779. purified cruzain, Z-FR-AMC fluorescence, 0.01% Triton. Potency, µM, without a hit: max response, negative = inhibition, most hits filed as inhibitors. 0.43% of 200,000 active. AID 1478;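 note: plate controls were neutral wells for no effect and buffer without enzyme for full effect; nearly all actives have a fitted effect of over 40% in size; top concentration of the series not given in the record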
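In this qHTS format, compounds are incubated with 1.5 nM cruzain for 15 min at room temperature before 2 uM Z-FR-AMC is added. Release of AMC is followed at 360/450 nm, and progress is taken as the 60 s fluorescence difference.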
Starred values were filed as active, the others as inactive; ? = inconclusive; . = not tested or not shown; & = joins results of further samples; [ ] = another dose, or the depositor's remark. Unless noted, calls come from the whole dose curve; as a rule, active = well fitted curve in the direction sought with a large enough effect; inconclusive = small, poorly fitted or top-dose-only effect, or another doubt; inactive = no such curve, though single readings can be large; an effect the other way counts as inactive or inconclusive. Potency is the fitted concentration of half-maximal effect.

SMILES	NS1 inh	RE007 growth inh	MARV entry inh	2A StopGo	LASV entry inh	Cruzain inh noDet	SARS PLP yeast	Cruzain Triton
N#Cc1cc(C(=O)c2ccccc2OCC(=O)Nc2ccccc2)cn(C2CCCCC2)c1=O	3.6%	-1.2%	?	-1.6%	10.8%	10.2%	-33.9%	-1.4%
COc1ccc(OCCn2cc(C(=O)C3CCCCC3)c3ccccc32)cc1	.	.	-19.1%[46.1 µM]	-15.8%	-14.9%[46.1 µM]	-19.2%	.	-5.9%
O=C(Cn1cnc2c(cnn2-c2ccccc2)c1=O)NCCc1ccccc1	3.4%	9.3%	1.4%	-9.6%	21.2%	?	11.9%	0.7%
CS(=O)(=O)N(CC(=O)Nc1cc(Cl)ccc1Cl)c1ccccc1Cl	-3.6%	-2.7%	-10.2%	-17.6%	-15.6%	-7.0%	-1.1%	-4.4%
O=c1cc(-c2ccccc2)nc(N2CCCCC2)[nH]1	-32.6%	8.9%	2.3%	-3.8%	-21.6%	-22.5%	?	0.0%
COc1cccc(C(=O)Nc2cccc(SC)c2)c1	-78.1%	?	?	7.6%	-1.2%	?	-3.0%	-4.5%
Cc1ccc(S(=O)(=O)NNC(=O)C2Cc3c(ccc4ccccc34)O2)cc1 (configuration not stated)	-1.2%	4.9%	?	?	0.4%	6.3%	-4.1%	5.2%
COC(=O)c1ccc(NC(=O)CSc2nnc(-c3cccnc3)o2)cc1	.	-6.3%	?	-8.5%	2.5%	.	-6.0%	.
CC(C)C(c1nnnn1C1CCCCC1)N1CCN(c2ncccn2)CC1 (configuration not stated)	-41.6%	0.8%	19.7%	-17.4%	-16.1%	10.8%	5.6%	-6.7%
CCCCc1c(C)[nH]c(C(=O)OCC)c1C	.	14.9%	-15.9%[46.1 µM]	1.4%	-9.2%	.	-2.4%	.
COCn1c(COc2ccc3ccccc3c2)nc2ccccc21	-38.8%	-24.2%	?	-11.3%	10.8%	3.9%	-35.1%	-10.3%
O=C(O)c1cccc(Cn2c(Cl)c(/C=N/NC(=O)c3cccc(O)c3)sc2=O)c1	6.9%	-4.7%	-3.8%[46.1 µM]	1.1%	-16.2%	.	0.3%	.
COc1cccc(OCC(=O)Nc2ccccc2C(=O)Nc2ccc(C(=O)O)cc2)c1	-0.2%	7.9%	2.7%[46.1 µM]	-0.6%	9.8%[46.1 µM]	.	3.2%	.
Cc1cccc(-c2nc(CS(=O)CC(=O)NC3CCCC3)c(C)o2)c1 (configuration not stated)	?	-2.1%	2.1%	-7.7%	.	-3.6%	1.2%	-2.9%
Cc1cc(NC(=O)c2cccs2)cc(-c2nc3ncccc3o2)c1O	-3.1%	-4.7%	-7.2%	-6.2%	4.6%	.	11.4%	.
c1csc(-c2nc(-c3ccc(-c4ccon4)s3)no2)c1	-5.5%	-6.2%	.	34.9%[activator]	.	.	-3.2%	.
O=C(CN(Cc1ccccc1F)C(=O)Cn1nnc(-c2cccs2)n1)NCC1CCCO1 (configuration not stated)	-8.4%	0.5%	0.0%&1.2%	.	15.0%	6.1%	14.1%	-0.5%
CCOC(=O)c1ccc(NC(=O)c2cccc3c(=O)c4c([nH]c23)CCCC4)cc1	.	.	?	-5.1%	?	-1.3%	.	-6.0%
O=S(=O)(NCC1(N2CCOCC2)CCCCC1)c1ccc(F)cc1	.	6.1%	?	1.1%	16.7%	.	.	.
CCCCNC(=O)COC(=O)c1cc(C)oc1C	.	0.6%	-6.6%[46.1 µM]	2.9%	11.2%[46.1 µM]	.	-6.9%	.
C=CCOc1c(Br)cc(CNn2c(C)n[nH]c2=S)cc1OCC	26.3%	-11.5%	-28.0%	?	-3.2%	.	0.0%	.
CC1CCCCN1C(=O)CSc1nnc(-c2cccnc2)o1 (configuration not stated)	4.6%	20.1%	?	12.0%	6.3%[46.1 µM]	.	-8.3%	.
CCCC(=O)OC1=CN(Cc2ccccc2)S(=O)(=O)c2ccccc21	.	.	-2.7%[46.1 µM]	-8.4%	4.9%[46.1 µM]	-12.7%	.	-11.1%
COCCn1c(COc2cccc(OC)c2)nnc1SCC(=O)N1CCOCC1	-2.3%	3.0%	15.4%	9.9%	-2.4%	2.2%	14.8%	7.0%
O=C(NCCc1ccccc1)c1ccc2c(c1)OCCO2	-24.3%	13.8%	0.447µM*	1.78µM*	0.355µM*	.	-0.9%	.
COc1ccc(/C=C/C(=O)Oc2cc(C)[nH]c(=O)c2[N+](=O)[O-])cc1OC	.	4.2%	7.3%[46.1 µM]	-13.3%	3.0%	.	3.0%	.
CC(=O)N(CCN(C(C)=O)c1ccccc1)c1ccccc1	3.6%[9.22 µM]	3.4%	?	-3.3%	-4.5%	-1.3%	-0.8%	-3.9%
Clc1ccccc1-c1nnc2sc(-c3ccc(Br)o3)nn12	-10.2%	10.0%	-26.3%	14.7%	?	-12.6%	0.1%	-4.9%
COc1ccc(CNc2ncnc3c2[nH]c2ccccc23)cc1	-45.1%	-0.3%	?	?	?	.	-3.8%	.
O=C(Nc1cc(Cl)cc(Cl)c1)c1ccc(Cn2c(=O)[nH]c3ccsc3c2=O)cc1	15.1%	8.4%	?	?	-2.6%	?	-3.6%	0.4%
CC1CCCN(C(=O)COC(=O)c2cc([N+](=O)[O-])ccc2N2CCOCC2)C1 (configuration not stated)	.	3.9%	15.6%[46.1 µM]	-17.8%	13.3%	.	-9.5%	.
Cc1ccc(CNC(=O)c2sc3nc(-c4ccc(F)cc4)ccc3c2N)cc1	.	.	18.1%[46.1 µM]	-3.9%	8.1%[46.1 µM]	-26.9%	.	-2.8%
CCOc1ccc(N2C(=O)N(Cc3ccc(C)cc3C)c3ccccc3S2(=O)=O)cc1	.	.	.	-13.1%	0.2%[46.1 µM]	25.1µM*	.	0.1%
Cc1onc(-c2c(F)cccc2Cl)c1C(=O)Nc1ccccc1N1CCOCC1	2.2%	-13.6%	-29.6%	?	-16.2%	.	-0.6%	.
CC(c1ccccc1)c1nnc(N)s1 (configuration not stated)	1.7%	5.1%	.	4.9%	.	.	0.1%	.
Cn1cnc(S(=O)(=O)N2CCCC(C(=O)NCc3ccc(Cl)cc3)C2)c1 (configuration not stated)	.	.	.	0.0%	-2.2%[46.1 µM]	3.6%	.	0.9%
COC(=O)CCC(=O)OC1(C)C(=O)C=C2C=C(C3CC3)N(c3ccccc3)C=C2C1=O (configuration not stated)	-1.7%	-14.3%	.	3.4%	.	.	0.1%	.
Cc1cc(C)cc(NC(=O)CCOc2ccccc2)c1	-11.6%	9.6%	.	14.1%	.	.	-0.4%	.
Cc1ccc(C(=O)N/C(=C/c2ccc(Cl)cc2)C(=O)NCC2CCCO2)cc1 (configuration not stated)	3.7%	9.0%	2.3%	-2.8%	9.1%	9.5%	-2.7%	-0.4%
Cc1cc(=O)[nH]c(SCC(=O)N2CCN(c3ccccc3)CC2)n1	.	.	-3.1%[46.1 µM]	-6.0%	?	-9.3%	.	-5.8%
Cc1ccc(/C=C/C(=O)O)cc1S(=O)(=O)N1CCC(Cc2ccccc2)CC1	0.4%	-6.0%	.	-4.0%	.	.	-1.6%	.
CCOC(=O)c1c(C)[nH]c(C(=O)COC(=O)COc2ccccc2C)c1C	9.8%	9.1%	7.2%	0.6%	-6.6%	18.8%	17.5%	-10.3%
O=C(CCn1c(=O)[nH]c2ccccc2c1=O)Nc1ccccc1	0.3%	-12.9%	-10.7%	-19.3%	2.2%	-4.1%	-2.7%	0.0%
COc1ccccc1NC(=O)N1CCN(c2cccc(C(F)(F)F)c2)CC1	-88.0%	-12.6%	19.5%	?	8.1%	-7.1%	-22.8%	-13.7%
COc1ccc(CCNC(=O)C(=O)NCc2ccc(C(C)C)cc2)cc1OC	-35.1%	5.8%	-1.4%	-11.7%	-9.9%	?	3.2%	2.5%
Cc1nc(SCC(=O)N2CCCc3ccccc32)c2oc3ccccc3c2n1	-62.7%	1.9%	-49.4%	23.3%	?	24.8%	-3.4%	-4.9%
O=C(NCCN1CCOCC1)/C(=C\c1ccccc1Cl)NC(=O)c1ccccc1	-11.8%	-0.4%	-3.2%[46.1 µM]	24.8%	-9.3%[46.1 µM]	.	-1.6%	.
O=C1/C(=C\c2cc3c(cc2Br)OCO3)N2CCC1CC2	-25.7%	4.3%	4.1%	0.0%	-14.8%	3.5%	0.3%	-2.6%
Cc1cc(C)c2c(N=NN3CCCCC3)[nH]nc2n1	-37.8%	30.7%	?	24.5%	-11.5%	-10.0%	-91.6%	-12.7%
CC1CN(C(=S)SCC(=O)c2ccccc2)CC(C)O1 (configuration not stated)	-6.0%	-14.2%	-3.5%	15.3%	3.8%	-14.4%	10µM*	2.0%

As entered above:
CCCCNC(=O)COC(=O)c1cc(C)oc1C – 2A StopGo = 2.9%
O=C(CN(Cc1ccccc1F)C(=O)Cn1nnc(-c2cccs2)n1)NCC1CCCO1 (configuration not stated) – Cruzain Triton = -0.5%
CCCCc1c(C)[nH]c(C(=O)OCC)c1C – MARV entry inh = -15.9%[46.1 µM]
CC(c1ccccc1)c1nnc(N)s1 (configuration not stated) – NS1 inh = 1.7%
CC(C)C(c1nnnn1C1CCCCC1)N1CCN(c2ncccn2)CC1 (configuration not stated) – 2A StopGo = -17.4%

Compounds shown so far containing a nitro group on carbon, in the order listed:
SMILES	NS1 inh	RE007 growth inh	MARV entry inh	2A StopGo	LASV entry inh	Cruzain inh noDet	SARS PLP yeast	Cruzain Triton
COc1ccc(/C=C/C(=O)Oc2cc(C)[nH]c(=O)c2[N+](=O)[O-])cc1OC	.	4.2%	7.3%[46.1 µM]	-13.3%	3.0%	.	3.0%	.
CC1CCCN(C(=O)COC(=O)c2cc([N+](=O)[O-])ccc2N2CCOCC2)C1 (configuration not stated)	.	3.9%	15.6%[46.1 µM]	-17.8%	13.3%	.	-9.5%	.

An unsorted share of the library (roughly 4.5% active in at least one column).
